Rtt109 HAT inh = inhibitors of C. albicans Rtt109/Vps75 HAT, primary screen, biochemical, ThioGlo CoA-SH fluorescence, plate reader; purified Rtt109/Vps75, 4 h; Histone acetyltransferase RTT109 (Candida albicans (strain SC5314 / ATCC MYA-2876)), …; inhibition, % at 34.9 µM; AID 540336, 2011; actives 0.16% (n = 330,000);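 active = inhibition of at least 50% in every replicate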
Target sequence (Q5AAJ8 whole entry, looked up): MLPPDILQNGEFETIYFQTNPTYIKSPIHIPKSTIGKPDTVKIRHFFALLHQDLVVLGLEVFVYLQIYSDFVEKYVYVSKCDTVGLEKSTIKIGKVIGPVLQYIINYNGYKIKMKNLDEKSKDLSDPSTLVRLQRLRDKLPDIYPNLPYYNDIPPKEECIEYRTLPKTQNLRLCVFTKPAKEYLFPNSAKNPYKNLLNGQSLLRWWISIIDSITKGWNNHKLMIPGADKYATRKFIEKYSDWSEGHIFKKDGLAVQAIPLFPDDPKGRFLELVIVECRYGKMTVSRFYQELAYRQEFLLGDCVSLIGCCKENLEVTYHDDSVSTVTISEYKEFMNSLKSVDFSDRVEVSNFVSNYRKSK
PfHsp90 yeast 2 = growth inhibition of PfHsp90-expressing yeast, primary screen, antimalarial PfHsp90 inhibitor project, S. cerevisiae, BacTiter-Glo luminescence, single point, set 2. BacTiter-Glo ATP, 48 h; yeast lacking PDR1 and PDR3 efflux regulators. inhibition, % at 9.4 µM. actives 0.32% (n = 310,000);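 active = every replicate shows inhibition above about 80%, whatever the replicate mean, limit read from the data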;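 note: 0% = DMSO neutral controls and 100% = 20 µM radicicol positive controls; yeast relying on Plasmodium falciparum Hsp90 in place of its own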
Cardiac RTF inh = cardiac RTF calcium sensitivity inhibitors, primary screen, biochemical, IANBD-TnC fluorescence, EC70 calcium | actives 0.12% (n = 340,000) | AID 493244, 2011 | Troponin I, cardiac muscle (Homo sapiens) + Troponin T, cardiac muscle (Homo sapiens) + … | IANBD-labeled cardiac RTF, Ca2+ fluorescence | inhibition, % at 7.15 µM;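 active = inhibition above the mean inhibition of all tested compounds plus 3 SD, cut at about 17% in these data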;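 note: assay run at fixed EC70 calcium of 1.6 mM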
RTF Ca sens act = cardiac RTF calcium sensitivity activators, primary screen, biochemical, IANBD-TnC fluorescence, EC20 calcium; activation, % at 7.2 µM; AID 493008, 2010; actives 0.24% (n = 340,000); IANBD-labeled TnC RTF fluorescence at EC20 calcium; 0% EC20 calcium, 100% full calcium; Troponin I, cardiac muscle (Homo sapiens) + Troponin T, cardiac muscle (Homo sapiens) + …;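 active = activation above the mean over all tested compounds plus 3 SD, cut at about 30% in these data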;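 note: rise in fluorescence read as greater calcium sensitivity of cardiac thin filaments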
PvdQ acylase = P. aeruginosa PvdQ acylase inhibitors, primary screen, biochemical, fluorescence, plate reader and imaging, single point. PvdQ acylase [Pseudomonas aeruginosa LESB58]. purified PvdQ acylase. inhibition, % at 10 µM. actives 0.063% (n = 340,000); in the data active = inhibition above about 30%, passing the limit was not always enough;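 note: 0% = vehicle neutral wells and 100% = reference inhibitor wells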
SUMO Mot1 rescue = yeast Mot1-301 growth rescue at high temperature, primary screen, SUMOylation pathway inhibitor project, S. cerevisiae, ATP luminescence, 38.5C | S. cerevisiae Mot1-301 growth rescue; percent above DMSO median, 100 means doubled | growth rescue, % at 18.8 µM | actives 1% (n = 320,000);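 active = every valid replicate shows activation above 250% relative to neutral control wells; inactive = the rest, any valid replicate at or below 250%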;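 note: OY570 slx delta 5 strain wells were the positive control but not used for scaling; some compounds called inactive have numbers as strong as hits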
* hit, by the source's call; . = not tested or not shown; & = joins results of further samples.

Letter code: A = Rtt109 HAT inh; B = PfHsp90 yeast 2; C = Cardiac RTF inh; D = RTF Ca sens act; E = PvdQ acylase; F = SUMO Mot1 rescue
1) CC1(C)CC(=O)C2=C(C1)Nc1cc(Cl)ccc1S2
  A: 0.5; B: -13.8; C: -8.6; D: 11.3; E: -10.2; F: 102.1

2) Clc1ccc(CNc2ccc3nnc(-c4ccccc4)n3n2)cc1
  A: -8.3; B: -2.6; C: -0.6; D: -2.5; E: -4.9; F: 2.1

3) CC/C(=C(\c1ccccc1)c1ccc(OCCN(C)C)cc1)c1ccccc1
  A: 34.2&4.7; B: -8.6&-5.8; C: 0.9&16.8; D: -4.4&-3.7; E: -4.6&4.0; F: 11.4&-40.2

4) O=C1Nc2ccccc2Nc2ccccc21
  A: -1.4; B: 7.4; C: 1.0; D: -3.1; E: 9.9; F: -12.8

5) Cc1sc2ncnc(SCC(=O)N3CCN(C(=O)c4ccco4)CC3)c2c1C
  A: 2.6; B: 3.1; C: 4.0; D: 7.2; E: 5.1; F: .

6) O=C1Cc2c([nH]c3ccc(Br)cc23)-c2ccccc2N1
  A: 16.1; B: -18.4; C: 0.5; D: -3.2; E: 9.5; F: .

7) CNCC[C@H](Oc1ccc(C(F)(F)F)cc1)c1ccccc1
  A: 2.6; B: -6.6; C: 0.0; D: 4.4; E: -6.9; F: 13.0

8) CN1CCN2c3ncccc3Cc3ccccc3[C@@H]2C1
  A: -5.3; B: 5.7; C: 8.0; D: -2.2; E: -8.0; F: -0.5

9) O=S(=O)(c1ccc2nc(SCc3cccc(Cl)c3)[nH]c2c1)N1CCOCC1
  A: 1.4; B: 19.1; C: -2.2; D: 2.5; E: -16.1; F: -11.0

10) Cn1cc[nH]c1=S
  A: 0.5; B: -12.1; C: -12.2; D: 14.9; E: -17.7; F: .

A different layout for some results above:
Every second line gives: Rtt109 HAT inh, PfHsp90 yeast 2, Cardiac RTF inh, RTF Ca sens act, PvdQ acylase, SUMO Mot1 rescue
4. O=C1Nc2ccccc2Nc2ccccc21
→ -1.4, 7.4, 1.0, -3.1, 9.9, -12.8
5. Cc1sc2ncnc(SCC(=O)N3CCN(C(=O)c4ccco4)CC3)c2c1C
→ 2.6, 3.1, 4.0, 7.2, 5.1, .
6. O=C1Cc2c([nH]c3ccc(Br)cc23)-c2ccccc2N1
→ 16.1, -18.4, 0.5, -3.2, 9.5, .
7. CNCC[C@H](Oc1ccc(C(F)(F)F)cc1)c1ccccc1
→ 2.6, -6.6, 0.0, 4.4, -6.9, 13.0
8. CN1CCN2c3ncccc3Cc3ccccc3[C@@H]2C1
→ -5.3, 5.7, 8.0, -2.2, -8.0, -0.5

Remaining list, next part:
Letter code: A = Rtt109 HAT inh; B = PfHsp90 yeast 2; C = Cardiac RTF inh; D = RTF Ca sens act; E = PvdQ acylase; F = SUMO Mot1 rescue
11) CCN(CC)CCOc1ccc(/C(=C(\Cl)c2ccccc2)c2ccccc2)cc1
  A: 18.8; B: 10.5; C: 8.3; D: 0.1; E: 4.3; F: -31.3

12) CC1=C(/C=C/C(C)=C/C=C/C(C)=C\C(=O)O)C(C)(C)CCC1
  A: -14.8; B: -16.0; C: 6.1; D: -4.8; E: -8.1; F: 7.6

13) O=C(O)COCCN1CCN(C(c2ccccc2)c2ccc(Cl)cc2)CC1 (configuration not stated)
  A: -1.1; B: -0.4; C: 4.2; D: 3.2; E: -5.4; F: -7.7

14) CC(C)(C)n1nc(-c2ccc(Cl)cc2)c2c(N)ncnc21
  A: -17.6; B: 60.4; C: -7.8; D: 3.3; E: -12.7; F: 7.1

15) CCCC(=O)Nc1ccc(Cl)c(-c2nc3ncccc3o2)c1
  A: -8.2; B: 3.2; C: -8.3; D: 5.4; E: -20.4; F: -8.6

16) O=C1NCCCc2c1oc1ccc(O)cc21
  A: -1.6; B: -10.2; C: -0.2; D: -2.2; E: -7.9; F: -7.9

17) O=c1c(O)c(-c2ccc(O)c(O)c2)oc2cc(O)cc(O)c12
  A: 1.5; B: -5.5; C: -13.7; D: 7.4; E: -16.7; F: 7.0

18) Cc1nc(COc2ccccc2Cl)sc1-c1ccnc(N)n1
  A: -4.6; B: 13.5; C: -6.4; D: 1.3; E: -8.5; F: -17.0

19) S=C(NCc1cccnc1)c1ccccc1
  A: 3.7; B: -1.8; C: -3.6; D: -3.4; E: 4.1; F: -6.8

20) CCOC(=O)C1=C(C)NC(C)=C(C(=O)OC)C1c1cccc(Cl)c1Cl (configuration not stated)
  A: 8.5; B: 4.6; C: 10.3; D: 5.3; E: 2.9; F: -17.2

21) O=C1N=C(O)CN1/N=C/c1ccc(-c2ccc([N+](=O)[O-])cc2)o1
  A: -9.2; B: 2.5; C: -12.5; D: -1.6; E: -1.3; F: -3.6

Part of the list above, field by field:
8	CN1CCN2c3ncccc3Cc3ccccc3[C@@H]2C1
- Rtt109 HAT inh = -5.3
- PfHsp90 yeast 2 = 5.7
- Cardiac RTF inh = 8.0
- RTF Ca sens act = -2.2
- PvdQ acylase = -8.0
- SUMO Mot1 rescue = -0.5
9	O=S(=O)(c1ccc2nc(SCc3cccc(Cl)c3)[nH]c2c1)N1CCOCC1
- Rtt109 HAT inh = 1.4
- PfHsp90 yeast 2 = 19.1
- Cardiac RTF inh = -2.2
- RTF Ca sens act = 2.5
- PvdQ acylase = -16.1
- SUMO Mot1 rescue = -11.0

These rows are one share of the data (hit frequency here may not be typical).
